CSC inhib: cancer stem cell inhibition; cancer stem cell-like cells viability, luminescence; inhibition, % at 7.5 µM; actives 1.1% (n = 300,000);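 active = mean at 75% or more and at least half the replicates too; inconclusive = mean and replicates disagree; tested in HMLE shEcad cells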;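 also: 0% = median of negative and 100% = median of positive control wells; the first replicate is given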
Rce1 inhib: blocks yeast Ras-converting enzyme; calls only; AID 2563; Q03530; actives 0.27% (n = 290,000); yeast membranes, quenched prenylated peptide cleavage fluorescence;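 active = fall in fluorescence gain of 50% or more versus controls, with final raw signal at or below 3038400; inconclusive = same 50% fall but final raw signal above 3038400; inactive = fall in fluorescence gain under 50%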;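 also: plate controls were neutral control wells for no effect and wells lacking membranes for full effect; tested at 10 µM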
MT1-MMP act inh: inhibitors of human MT1-MMP activation | P50281 | HT1080 RFP-PRO-GFP cells, GFP/RFP ratio fluorescence, overnight; percent of plate control window, DMSO zero | GFP/RFP ratio change, % at 20 µM | actives 0.061% (n = 360,000) | AID 651647;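 active = GFP/RFP ratio change of at least 30% with cell ATP level not reduced by more than half and red fluorescence within 50% of control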; also: strong numbers were not always called active
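Assay system: HT1080 RFP-PRO-GFP cells. Benchmarks: DMSO vehicle wells and RFP-L50D-GFP reporter cell wells. Times: overnight cell settling, then overnight compound exposure, 37 °C, 5% CO2. Compound: 20 µM single dose, 1% DMSO. Read-out basis: GFP/RFP fluorescence ratio.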
PABP FP inh: PABP-poly(A) binding inhibition. inhibition, % at 35 µM. actives 1% (n = 290,000). PABP-poly(A) RNA binding, fluorescence polarization. P11940;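 active = 50% or more with normal probe brightness, or confirmed in later tests; inconclusive = above 50% with abnormal brightness, or retests that disagree; inactive = below 50% or failed in later tests; about a fifth of its hits are not listed in these tables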;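 also: calls also rest on retests at 20 µM and on dose response follow-up; controls were probe without protein and protein plus probe with vehicle; some compounds called inactive have numbers as strong as hits; many hits fall short of the cut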
Target sequence (P11940 whole entry, looked up): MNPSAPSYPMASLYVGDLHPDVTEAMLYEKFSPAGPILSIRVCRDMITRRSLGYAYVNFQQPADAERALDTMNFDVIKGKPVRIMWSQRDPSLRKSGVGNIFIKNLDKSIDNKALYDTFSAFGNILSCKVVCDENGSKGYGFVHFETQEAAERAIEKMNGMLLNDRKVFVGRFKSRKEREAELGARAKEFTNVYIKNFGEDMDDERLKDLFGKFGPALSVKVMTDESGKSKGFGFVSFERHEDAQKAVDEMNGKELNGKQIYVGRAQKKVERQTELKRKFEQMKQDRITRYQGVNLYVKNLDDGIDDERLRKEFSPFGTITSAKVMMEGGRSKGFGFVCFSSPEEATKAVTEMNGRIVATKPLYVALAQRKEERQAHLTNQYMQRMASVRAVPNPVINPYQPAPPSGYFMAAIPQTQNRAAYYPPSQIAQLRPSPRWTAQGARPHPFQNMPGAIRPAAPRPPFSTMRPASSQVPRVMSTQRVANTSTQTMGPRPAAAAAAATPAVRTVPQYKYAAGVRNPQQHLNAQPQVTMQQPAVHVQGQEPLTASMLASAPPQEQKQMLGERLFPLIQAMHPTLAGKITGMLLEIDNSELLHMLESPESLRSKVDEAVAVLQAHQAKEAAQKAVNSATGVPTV
eIF4H inh: inhibitors of RNA binding by human eIF4H | AID 2012 | eIF4H fluorescence polarization binding assay | actives 0.94% (n = 290,000) | inhibition, % at 35 µM | Q15056;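 active = 50% or more with normal probe brightness, or confirmed in later tests; inconclusive = above 50% with abnormal brightness, or retests that disagree; inactive = below 50% or failed in later tests; about a fifth of its hits are not listed in these tables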;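 also: calls also rest on retests at 20 µM and on dose response follow-up; 0% = protein and probe with vehicle and 100% = probe without protein; strong numbers were not always called active; many hits fall short of the cut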
Env fusion inh: blocks HIV Env-driven cell-cell fusion. HeLa-JRFL Env/CEM21 cell fusion, luciferase. inhibition, % at 12.3 µM. actives 1.1% (n = 360,000). AID 651610;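 active = mean replicate inhibition score of at least 50 and every replicate individually at or above 50; inconclusive = only one of the two criteria met; inactive = mean below 50 and not all replicates reaching 50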;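 also: 0% = plate neutral controls and 100% = maraviroc near 300 nM; one replicate is shown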
Yeast UUG start: alters start codon recognition fidelity in yeast; actives 0.13% (n = 350,000); AID 602363; S. cerevisiae UUG-firefly luciferase reporter, luminescence/redox ratio; activity score, % at 18.7 µM;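 active = replicate mean at a twofold rise or more, about +100% in these data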;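 also: firefly luciferase made from a UUG start codon reports start codon fidelity; reporter light over untreated wells divided by growth signal over untreated wells; some hits fall short of that in this replicate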
MT1-MMP act inh RFP: recorded beside MT1-MMP act inh, whose call it bears; RFP signal change, %; measured here: RFP expression control read;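 0 = vehicle wells; hits needed this value within 50% of zero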
An asterisk follows results filed as active; i = inactive; ? = inconclusive; / = not tested or not shown; & = joins results of further samples.

SMILES	CSC inhib	Rce1 inhib	MT1-MMP act inh	MT1-MMP act inh RFP	PABP FP inh	eIF4H inh	Env fusion inh	Yeast UUG start
C=C(C)C(=O)Nc1cccc(C2=NOC3(C2)C[C@@H](C(N)=O)N(C(=O)/C(C)=C/C)C3)c1 (stereo partly drawn)	1.6	i	9.7	11.5	57.5*	82.6*	9.2	-1.7
FC(F)(F)c1cccc(Nc2cc(-c3ccccc3)nc3ncnn23)c1	14.9	i	-0.2	0.6	4.4	-14.4	7.4	/
CCN(C[C@H]1N[C@@](CC)(C(=O)OC)[C@H]2C(=O)N(C)C(=O)[C@@H]12)C(=O)NC(C)C	/	/	3.7	5.1	/	/	-7.9	-8.5
CCCCn1c(N)c(N(CC(C)C)C(=O)c2cccc(S(=O)(=O)N(C)c3ccc(C)cc3)c2)c(=O)[nH]c1=O	-12.4	i	-1.0	0.7	/	/	22.2	-12.6
Cn1cnc(S(=O)(=O)N2CCCCC2c2cc(C(=O)Nc3ccc(F)c(Cl)c3)no2)c1 (stereo not drawn)	/	/	2.8	-5.8	/	/	-29.4	1.0
CCCCOC(=O)C1=C(C)NC(=O)NC1c1ccc([N+](=O)[O-])s1 (stereo not drawn)	26.1	i	/	/	-5.4	-8.5	7.6	/
Cc1cc(C)cc(N2CCCC2=O)c1	-8.0	i	0.8	8.2	7.5	-0.1	-35.1	-24.3
CNC(=O)NC(=O)CSc1nc2sccc2c(=O)n1-c1ccccc1	0.5	i	-0.3	-2.8	9.6	11.0	-6.7	-11.0
COc1cccc(CN2CCN(Cc3cccn3-c3cccnc3)CC2CCO)c1 (stereo not drawn)	-8.6	i	1.5	2.6	4.7	12.1	-9.9	/
Cn1c(=O)c(C(=O)CN2CCc3ccccc32)c(N)n(Cc2ccccc2)c1=O	0.3	i	6.3	12.7	-9.8	-0.8	/	/

Continued, starting with the last two of the part before.
SMILES	CSC inhib	Rce1 inhib	MT1-MMP act inh	MT1-MMP act inh RFP	PABP FP inh	eIF4H inh	Env fusion inh	Yeast UUG start
COc1cccc(CN2CCN(Cc3cccn3-c3cccnc3)CC2CCO)c1 (stereo not drawn)	-8.6	i	1.5	2.6	4.7	12.1	-9.9	/
Cn1c(=O)c(C(=O)CN2CCc3ccccc32)c(N)n(Cc2ccccc2)c1=O	0.3	i	6.3	12.7	-9.8	-0.8	/	/
COC(=O)N[C@@H]1C[C@H]2[C@@H]3CC[C@H]4C[C@@H](OC)CC[C@]4(C)[C@H]3CC[C@]12C	15.3	/	3.9	-5.6	/	/	-5.6	-4.7
COc1ccc(S(=O)(=O)N2CCc3ccccc32)cc1C(=O)Nc1ccc(C(N)=O)cc1	43.4	/	-0.2	-2.4	/	/	8.8	-12.9
COC(CNC(=O)C1CCN(C(=O)c2cc3oc(C)cc3n2Cc2c(F)cccc2Cl)CC1)OC	/	i	-0.9	-3.6	?	4.1	13.9	/
CN(Cc1ccccc1)c1nc2c(c(=O)[nH]c(=O)n2C)n1Cc1ccccc1Cl	-4.2	i	-6.1	-8.7	3.0	-4.5	-78.9	-9.5
Cc1ncoc1C(=O)N1CCCC(C(=O)c2ccc(C(F)(F)F)cc2)C1 (stereo not drawn)	-4.3	i	0.6	-1.9	-0.1	-1.6	23.2	7.4
Cn1c(CC(=O)Nc2ccccc2F)nnc1SCC(=O)NC1CCCC1	/	i	0.1	2.3	3.5	1.8	5.9	/
COc1ccc2c3c1OC1CC(O)C=CC31CCN(C)C2 (stereo not drawn)	-1.6&-8.1	i	-4.1&-0.6	2.8&4.4	2.7&0.2	6.3&-4.2	-0.1	-5.1&-2.8
Cc1cccc(NC2=C(C#N)C(=O)NC3(CCCC3)S2)c1	-9.0	i	22.8	0.7	13.6	4.0	-3.7	-9.8
O=C(Nc1cccc(-c2nc3cccnc3s2)c1)C1c2ccccc2Oc2ccccc21	/	i	3.5	6.3	-0.4	16.4	/	-4.5
CC1(C)CC2(CCO1)OC(=O)CC2C(=O)Nc1c(Cl)cccc1Cl (stereo not drawn)	-0.9	i	-1.9	3.6	8.8	-1.4	7.4	/
Cc1ccc(Nc2nc(N)nc(CSc3nncn3C)n2)cc1	-19.4	i	2.0	6.0	6.5	-1.8	/	-21.8
CCOC(=O)NCC(C#CCN(CC)CC)N(CC)CC (stereo not drawn)	1.7	i	0.1	1.4	11.4	-6.4	/	34.0
COc1ccc(C(=O)NNC(=O)CSc2nc3c([nH]2)c(=O)n(C)c(=O)n3C)cc1	5.2	/	-0.7	3.2	-3.9	1.2	2.0	-11.8
CCOc1cccc(OCCOCCNC(C)(C)C)c1	2.5	i	0.7	1.7	-3.5	10.7	-4.2	/
Cc1ccccc1N(CC(=O)Nc1ccc(F)cc1)S(C)(=O)=O	-5.8	i	2.8	6.2	-7.5	12.9	/	-8.6
O=C(Sc1cccc2cccnc12)c1ccc(F)cc1	/	/	/	/	1.6	-6.1	37.2	/
CC(C)(C)c1nn(-c2ccccc2)c2[nH]c(=O)c(CNCc3ccco3)cc12	/	i	9.0	1.5	3.1	11.7	/	5.2
COCCNC(=O)c1onc(CSc2ccccc2)c1C(=O)O	-0.4	i	0.0	5.1	-2.9	-8.7	3.1	-6.3
COc1ccc(NS(=O)(=O)c2cc(NC(=O)c3ccc(F)cc3)ccc2OC)cc1	-25.6	i	2.2	-2.4	-3.4	3.0	-10.4	-0.8
Cc1nc(N[C@@H](Cc2ccccc2)C(=O)O)c2oc3ccccc3c2n1	-8.6	i	6.4	5.5	-2.4	-4.1	/	/
C#CCOCCOCCOCCNc1nc(N2CCN(C(=O)Cn3cc(CCCN=C(N)N)nn3)CC2)nc(N2CCN(C(=O)Cn3cc(CC(C)O)nn3)CC2)n1 (stereo not drawn)	/	/	2.1	8.4	/	/	-3.3	-14.1
O=C(N/N=C/c1cnc(N2CCCCC2)s1)c1ccc(C(F)(F)F)cc1	19.8	i	-4.0	-14.0	-4.0	-0.5	29.1	/
O=C(COc1ccc(F)cc1)NNC(=O)c1cc2ccccc2oc1=O	14.8	i	1.0	0.9	6.0	1.8	-16.3	-14.4
CCOc1ccc(N2C(=O)CC(N3CCN(c4ccccc4F)CC3)C2=O)cc1 (stereo not drawn)	-9.3	i	4.0	1.5	-7.0	-0.6	/	-18.7
COc1cccc(NC(=O)CN2C(=O)CSc3ccc(S(=O)(=O)N4CCC(C)CC4)cc32)c1	-14.9	i	-5.2	-3.9	/	/	9.1	10.0
CC1CCN(C(=O)c2ccc(S(=O)(=O)N3CCCCCC3)cc2)CC1	-6.2	/	6.5	-0.5	/	/	1.8	/
CCN1C[C@@H]2[C@@H]3C(=O)N(Cc4ccccc4)C(=O)[C@@H]3[C@](Cc3ccccc3)(C1=O)N2C(=O)c1ccc(Cl)cc1	/	/	-5.6	3.4	/	/	26.9	-0.9
NN/C(=C\[N+](=O)[O-])Nc1ccccc1	-0.9	i	5.2	4.4	-4.2	-10.5	-3.4	/
O=C(O)c1ccc(Nc2nc(-c3ccccc3)nc3ccccc23)cc1	15.4	i	-1.7	-2.5	23.1	3.7	9.3	-6.2
C=CCn1c(SCc2ccc3nonc3c2)nnc1-c1cccs1	/	i	-0.9	2.0	2.5	2.4	-33.2	-16.0

Quoted at random: 7 compounds from above.
SMILES	CSC inhib	Rce1 inhib	MT1-MMP act inh	MT1-MMP act inh RFP	PABP FP inh	eIF4H inh	Env fusion inh	Yeast UUG start
O=C(O)c1ccc(Nc2nc(-c3ccccc3)nc3ccccc23)cc1	15.4	i	-1.7	-2.5	23.1	3.7	9.3	-6.2
C#CCOCCOCCOCCNc1nc(N2CCN(C(=O)Cn3cc(CCCN=C(N)N)nn3)CC2)nc(N2CCN(C(=O)Cn3cc(CC(C)O)nn3)CC2)n1 (stereo not drawn)	/	/	2.1	8.4	/	/	-3.3	-14.1
CC1CCN(C(=O)c2ccc(S(=O)(=O)N3CCCCCC3)cc2)CC1	-6.2	/	6.5	-0.5	/	/	1.8	/
O=C(COc1ccc(F)cc1)NNC(=O)c1cc2ccccc2oc1=O	14.8	i	1.0	0.9	6.0	1.8	-16.3	-14.4
C=CCn1c(SCc2ccc3nonc3c2)nnc1-c1cccs1	/	i	-0.9	2.0	2.5	2.4	-33.2	-16.0
CCOc1ccc(N2C(=O)CC(N3CCN(c4ccccc4F)CC3)C2=O)cc1 (stereo not drawn)	-9.3	i	4.0	1.5	-7.0	-0.6	/	-18.7
CCN1C[C@@H]2[C@@H]3C(=O)N(Cc4ccccc4)C(=O)[C@@H]3[C@](Cc3ccccc3)(C1=O)N2C(=O)c1ccc(Cl)cc1	/	/	-5.6	3.4	/	/	26.9	-0.9

Going on with the list.
SMILES	CSC inhib	Rce1 inhib	MT1-MMP act inh	MT1-MMP act inh RFP	PABP FP inh	eIF4H inh	Env fusion inh	Yeast UUG start
Cc1cccc(NC(=O)c2cc(Cl)ccc2[N+](=O)[O-])c1	9.8	i	-14.3	-4.5	6.0	5.1	7.3	-0.4
CC(C)Oc1ccc(C(=O)NC(Cc2c[nH]c3ccccc23)C(=O)NN)cc1 (stereo not drawn)	-12.5	i	-6.6	2.2	0.9	-1.4	-13.7	-11.6
COc1ccc(CC(=O)Nc2nc(C)cs2)cc1S(=O)(=O)N1CCOCC1	/	/	-2.1	1.6	/	/	-1.7	-1.8
O=C(NCc1ccco1)C1CCCN(S(=O)(=O)c2cccc3cccnc23)C1 (stereo not drawn)	-2.2	i	-3.9	-1.6	-3.9	5.7	-2.1	6.5
COc1ccccc1CN1CC(C(=O)N(C)CCOc2ccccc2)CCC1=O (stereo not drawn)	-1.9	i	-3.0	-1.9	-1.8	2.4	5.7	3.2
C=CC(=O)N1c2ccccc2Sc2ccc(NC(=O)OCC)cc21	31.8	i	-15.8	-11.7	/	/	/	-4.7
CC1CCCCC1NC(=O)C1CCC(CNS(=O)(=O)c2ccc(F)cc2)CC1 (stereo not drawn)	-7.2	i	-1.2	-1.9	1.5	3.4	2.2	-15.1
CC(C)n1c(=O)[nH]c2ccccc21	-0.4	i	1.5	6.0	-5.0	-4.4	/	-24.9
CCC(=O)Nc1cccc(NC(=S)NC(=O)c2ccccc2Cl)c1	-3.9	i	6.6	4.1	-5.0	3.5	/	5.0
COc1ccc(OC)c(NS(=O)(=O)c2ccc(NC(C)=O)cc2)c1	-1.4	i	3.0	-2.7	-5.4	3.2	-143.7	-13.6
COC(=O)CC1COc2ccccc2N1C(=O)c1cccc(C(F)(F)F)c1 (stereo not drawn)	-2.7	i	2.7	4.2	-1.7	2.5	15.9	0.4
Cc1ccc(-n2ncc3c2CC(C)(C)CC3NC(=O)CCCN2CCCC2=O)cc1 (stereo not drawn)	-0.2	i	0.2	0.7	-3.1	3.8	9.8	10.0
CCn1c(SCC(=O)N2CCCCCC2)nc2c([nH]c3ccccc32)c1=O	-0.8	i	-2.8	-1.4	-4.5	-2.7	6.5	-14.4
N=C1/C(=C/c2ccc(OCc3ccccc3F)cc2)C(=O)N=C2SC(CC(=O)N3CCOCC3)=NN12	-2.1	i	-4.7	-2.3	11.4	10.2	-1.5	-16.6

Screening results: PubChem BioAssay, several laboratories

Not all compounds are listed; the hit share may differ from the screen's.
